# From PubChem
# HIV TAR-Tat: HIV-1 TAR-Tat binding disruption | HIV-1 TAR RNA, Tat peptide displacement FRET; stronger effect = higher value | z-score (concentration not given with the values) | 100,000 tested, 0.6% active | AID 1259389;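 note: score is relative to mean and SD of negative controls; some compounds called inactive have numbers as strong as hits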
# CDC25B CDK2 inh: human CDC25B-CDK2/CyclinA binding inhibition | P30305+P24941 | HTRF CDC25B-CDK2/CyclinA binding, anti-His/anti-Flag; stronger effect = higher value | z-score (concentration not given with the values) | 94,000 tested, 0.72% active | AID 1259370;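 note: score is relative to mean and SD of negative controls; strong numbers were not always called active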
# An asterisk follows results filed as active; · = not tested or not shown.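 Rule for the calls: active = z-score from 3 up in half or more of its runs; inactive = the rest.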
mol	HIV TAR-Tat	CDC25B CDK2 inh
N#Cc1c(-c2cccnc2)[nH]c(=S)[nH]c1=O	·	-0.97
CNC1(c2nnnn2CCOC(=O)Nc2ccc(Cl)cc2)CCCC1	0.7	-0.84
CCNc1sc(S(C)(=O)=O)nc1S(=O)(=O)c1ccc(C)cc1	0.45	-0.35
Cn1c(SCC(=O)c2ccc(Cl)cc2)nnc1C(F)(F)F	·	-2.49
CCCc1cc(=O)[nH]c2c1c(C)nn2CCC	1.47	·
CCn1nc(C)cc1C(=O)NNC(=S)Nc1ccccc1	·	-2.08
CCN(CCc1ccncc1)C(=O)c1ccc(N2C(=O)C(C)(C)CS2(=O)=O)cc1	0.85	-1.02
CCOc1cc(OCC)c(/C=N/O)c(OCC)c1	·	-1.72
CSc1ncccc1C(=O)Nc1c(C)nn(C)c1C	0.84	·
O=C1CCCc2cc(S(=O)(=O)NCC3CCC(C(=O)Nc4nccs4)CC3)ccc2N1 (stereo not drawn)	-0.16	·
COC12CCC(CC1)C(O)(C#N)C2 (stereo not drawn)	·	-1.85
Cc1nc2nc(-c3ccccc3)cc(=O)n2[nH]1	0.51	-1.55
COc1ccc(C(O)Cc2nc3ccccc3n2C)cc1OC (stereo not drawn)	-0.31	-0.75
Cc1ccc(-c2n[nH]c(=O)c3c2CCCC3)cc1S(=O)(=O)Nc1ccc2c(c1)OCO2	3.73	1.29
Cc1ccc2[nH]c(=O)c(-c3noc(-c4ccccc4)n3)cc2c1	0.33	-1.75
COc1ccc(-c2noc(C3CCCN(S(=O)(=O)c4ccc(Cl)cc4)C3)n2)cc1 (stereo not drawn)	1.99	·
O=C(COc1ccc(SC(F)(F)F)cc1)NNC(=O)Nc1ccc(Cl)cc1	·	-0.68
Cn1c(=O)c2c(nc(CN3CCCCC3)n2CC(=O)C(C)(C)C)n(C)c1=O	-1.52	1.51
O=c1ccc(-c2ccc(S(=O)(=O)Nc3ccc(-c4ccno4)cc3)s2)n[nH]1	1.05	·
O=C1CC(=O)Nc2cc(S(=O)(=O)N3CCN(c4ccccn4)CC3)ccc2N1	-3.35	·
COc1ccc(N2CSC3=C(C#N)C(c4ccccc4)CC(=O)N3C2)c(OC)c1 (stereo not drawn)	-2.01	4.28*
O=S(=O)(c1cccc(C(F)(F)F)c1)N(Cc1ccc2c(c1)OCO2)c1ccc(F)cc1	·	-0.02
COc1ccc(S(=O)(=O)N2CCCCC2c2cccnc2)cc1 (stereo not drawn)	0.02	-0.91
N#C/C(N)=C(/C#N)N=Cc1ccccc1Sc1ccc(Cl)cc1	·	-1.34
Cc1ccc(-c2c(NCc3ccc4c(c3)OCO4)c(=O)c2=O)cc1C	0.4	·
O=C(NC1CCCCC1)c1ccc2cccc(O)c2n1	0.63	·
CCN1CCN(Cc2nc3c(c(=O)n(C)c(=O)n3C)n2CCCO)CC1	·	-0.73
CC1CCN(C(=O)CN2C(=O)CSc3cccn3-c3ccccc32)CC1	0.36	·
CN1C(=O)Cc2cc(S(=O)(=O)N3CCC(Cc4ccccc4)CC3)ccc21	1.3	·
Cc1c(C)n(-c2ccccc2Br)c2ncn3nc(-c4ccccc4O)nc3c12	-1.33	-0.59
S=C1CC(c2cccc(Cl)c2)=Nc2ccccc2N1	3.27	-2.07
CSc1ccc(NC(=S)Nc2ccccc2C)cc1	·	-0.88
Nc1c(C(=O)c2ccccc2)sc2nc3c(cc12)CN(Cc1ccccc1)CC3	1.77	-1.69
O=C(C1COc2ccccc2C1)N1CCC(N2CCCCC2)CC1 (stereo not drawn)	0.88	·
COc1ccc(-c2noc(CSc3nnc(C)n3-c3ccc(C)cc3)n2)cc1OC	1.26	-2.04
O=C(Cn1cc(S(=O)(=O)N2CCCC2)c(S(=O)(=O)N2CCCC2)c1)Nc1ccccn1	3.35	·
O=c1c2ccccc2sc2ccc(Br)cc12	·	0.43
Cc1nnc(N2CCC(C(=O)N3CCC(C)CC3)CC2)c2nn(-c3ccc(Cl)cc3)c(C)c12	0.97	·
O=C(CC1Oc2ccccc2NC1=O)NC1CC1 (stereo not drawn)	-0.87	-1.07
Cc1nc(CNC(=O)C2CCN(C(=O)NCC3CCCO3)CC2)cs1 (stereo not drawn)	0.99	·
O=C(Nc1nnc(SCc2nnc(-c3ccccc3)o2)s1)c1ccco1	0.09	·
CC1(C)NC(C)(C)c2nonc2/C1=N\O	·	-2.37
O=C(Oc1ccc2sc(=O)oc2c1)c1ccco1	·	-2.55
Cc1[nH]c(=S)[nH]c(=O)c1C(C)C	·	-1.59
CCOC(=O)c1nnn2c1nc(N(CC)CC)c1ccccc12	·	-1.38
CC(Sc1nnc(COc2ccc(Br)cc2)n1-c1ccccc1)C(=O)O (stereo not drawn)	0.49	-0.94
Cn1cc(-c2cc3n(n2)CCCN3C(=O)CCC(=O)NCc2ccccn2)c2ccccc21	2.39	·
O=S(=O)(c1ccc(-n2cnnn2)cc1)N1CCC(Sc2ncccn2)CC1	1.35	-2.02
O=C(Nc1ccc2c(c1)OCCO2)c1cc2ccccc2o1	2.14	-2.15
COc1ccc(NC(=O)NC(=O)C(C)c2ccc(CC(C)C)cc2)cc1 (stereo not drawn)	·	-1.45
Cc1cc(C)cc(N2CC(C(=O)O)CC2=O)c1 (stereo not drawn)	·	-1.3
CCCN(CCC)Cc1ccc(CNS(=O)(=O)c2ccc3c(c2)C(C)(C)C(=O)N3C)o1	-0.29	·
COc1ccc(-c2cn3cc(-c4ccc(-c5ccccc5)cc4)nc3n2C)cc1	0.08	·
COc1ccc(N2CCN(c3nc4ccccc4c4nc(-c5cccnc5)nn34)CC2)cc1	1.46	-1.57
CSc1cccc(NC(=O)CN2CCCCC2)c1	·	-0.63
CN1C(=O)C(C)(C)c2cc(S(=O)(=O)NCCCN3CCOCC3)ccc21	1.71	·
O=C1NC2=C(C(=O)CCC2)C(c2ccccc2Cl)N1 (stereo not drawn)	·	-0.35
CC(C)NC(=O)CN1CC(C)Sc2ccccc21 (stereo not drawn)	0.52	·
Clc1ccccc1-c1nn[nH]n1	2.75	-1.39
O=c1cc2nc(-c3ccccc3)nc(SCCCOc3ccccc3)n2[nH]1	0.18	·

# Next part:
mol	HIV TAR-Tat	CDC25B CDK2 inh
Cn1c(=O)c2c(nc(N3CCCCC3)n2CC(O)COc2ccc(Cl)cc2)n(C)c1=O (stereo not drawn)	·	0.14
CC(C)Nc1ncnc2onc(-c3cccc(Cl)c3)c12	0.71	-0.78
N#Cc1cccc(NCCN2CCNC2=O)n1	·	-0.5
CC1CSc2ccc(S(=O)(=O)Nc3ccc(F)cc3Cl)cc2NC1=O (stereo not drawn)	-1.23	·
COc1ccc(O)c(C2=NN3C(C2)c2cc(Br)ccc2OC3c2cccnc2)c1 (stereo not drawn)	-2.03	0.43
Cc1ccsc1CCNS(=O)(=O)c1ccc2c(c1)NC(=O)C(C)C(=O)N2 (stereo not drawn)	0.35	-1.84
Cc1ccc(C(=O)Nc2ccc(NC(=O)C(=O)O)cc2)o1	·	-0.89
Cc1cccc2c1NC(=O)C2(O)CC(=O)c1cc2ccccc2o1 (stereo not drawn)	0.96	·
C[C@]12C=CC(=O)C=C1CC[C@H]1[C@@H]3C[C@@H](O)[C@](O)(C(=O)CO)[C@@]3(C)C[C@H](O)[C@@]12F	·	-1.86
O=C(Nc1ccc(Br)cc1F)c1cnn(-c2ccc(F)cc2)c1C1CCNCC1	0.61	·
O=C(COc1ccccc1Cl)N(Cc1ccco1)C1CCS(=O)(=O)C1 (stereo not drawn)	1.9	-1.16
CC1CCCCN1S(=O)(=O)c1ccc(C(=O)Nc2nc3c(s2)COc2ccccc2-3)cc1 (stereo not drawn)	·	-1.09
CSc1nc2ccc3nc(NC(=O)c4ccc5c(c4)OCCO5)sc3c2s1	·	-0.93
COc1cccc(C2CC(=O)N3CN(C)CSC3=C2C#N)c1OC (stereo not drawn)	-0.83	4.32*
CCc1ccc2c(c1)C(O)(c1c(C)[nH]c3ccccc13)C(=O)N2 (stereo not drawn)	1.45	·
COc1ccccc1CCN[C@H]1CS(=O)(=O)C[C@@H]1S(=O)(=O)c1ccc(Cl)cc1	-0.72	-0.63
NC(=Nc1csc(C(F)(F)F)c1-c1ccccc1)N1CCCCC1	·	-1.42
COC(=O)c1sc2cnccc2c1-n1cccc1	0.21	-2.79
COc1ccc(N2CC(O)=C(c3nc4ccccc4s3)C2=N)cc1	0.14	0.42
O=C(Cn1nc(-c2ccc(Cl)cc2)ccc1=O)NCCN1CCCC1	·	-0.24
CCCCn1c(C(O)CC)nc2ccccc21 (stereo not drawn)	2.06	-0.46
Cc1c(N)c(=O)n(-c2ccccc2)n1C	-1.41	·
Cc1nc2sccn2c(=O)c1S(=O)(=O)Nc1cc(Cl)ccc1O	1.58	·
CC(C)(C)S(=O)(=O)C/C(N)=N/OS(=O)(=O)c1ccc(F)cc1F	·	-1.43
CCCCCNC(=O)c1ccc(Cn2c(=S)[nH]c3ccccc3c2=O)cc1	·	-1.11
Cc1ccc(OCCCN2C(=O)C(=O)c3cc(Br)cc(C)c32)cc1	1.26	-0.37
CC(C)Cn1cc(NC(=O)NCCCN(C)c2ccccc2)c2ccccc2c1=O	-0.7	19.5*
CC1CCC2=NN(C(=O)COc3ccccc3)C(O)(C(F)(F)F)C2C1 (stereo not drawn)	·	-1.02
O=C(c1cc2ccc3cccnc3c2[nH]1)N1CCc2ccccc2C1	0.14	·
O=C1c2oc3ccccc3c(=O)c2C(c2cccc(O)c2)N1Cc1ccc(F)cc1 (stereo not drawn)	-1.76	-0.27
CS(=O)(=O)N1CCn2c1nc1ccccc12	0.65	-0.53
CCC(C)(C)C1CCc2c(sc(NC(=O)c3ccccc3C(=O)O)c2C#N)C1 (stereo not drawn)	·	0.05
Cc1ccc(OCC(=O)OCc2cc(=O)n3nc(C)sc3n2)cc1	-0.53	·
Cn1c(=O)oc2cc(NC(=O)c3ccco3)ccc21	0.43	·
COc1ccc2[nH]c(C(=O)NCCNc3cccc(C(F)(F)F)n3)cc2c1	·	-0.24
C=CCNC(=O)C1=CC(c2ccc(C)cc2)=NS(=O)(=O)N1C	1.92	-2.09
O=C(CSc1nn2cnnc2s1)N1CCc2ccccc21	1.05	0.43
Cc1ccc2nc(-c3ccncc3)c(Nc3ccc4c(c3)OCCO4)n2c1	·	-0.95
Cc1ccc(C)c(C2CC(=O)Nc3nc(SCc4ccccc4F)[nH]c(=O)c32)c1 (stereo not drawn)	0.9	-1.01
O=[N+]([O-])c1ccc(N2CCCCCCC2)cc1	·	-0.34
Clc1ccc(C2=NC(c3ccc4c(c3)OCO4)NN2)cc1 (stereo not drawn)	·	-0.82
Cc1noc(/C=C/c2sccc2C2OCCO2)c1[N+](=O)[O-]	·	-0.55
Cn1c(=O)c(=O)n(C)c2cc(NS(=O)(=O)c3ccc(F)cc3)ccc21	-0.5	·
C[C@@H]1O[C@@H](OC[C@H]2O[C@@H](Oc3cc(O)c4c(c3)O[C@H](c3ccc(O)c(O)c3)CC4=O)[C@H](O)[C@@H](O)[C@@H]2O)[C@H](O)[C@H](O)[C@H]1O	3.52*	·
CCCCOC(=O)C1=C(C)NC2=C(C(=O)CC(C)(C)C2)C1c1cccc(Br)c1 (stereo not drawn)	0.66	-2.72
O=C(Nc1nc2c(s1)CCCC2)C(=O)c1c(-c2ccccc2)cc2ccccn12	2.64	0.55
O=S(=O)(NCCc1csc(-c2ccc(F)cc2)n1)c1cc(F)ccc1F	1.42	·
CC(C)CCNC(=O)C1(C)Cn2c(ccc2-c2ccco2)C(=O)N1Cc1ccco1 (stereo not drawn)	-5.93	·
CN(c1ncnc2c1cnn2-c1ccc(Cl)cc1)C1CCCCC1	·	-2.31
Cc1cccc(Nc2nc(C)c3ncn(-c4cccc(C)c4)c3n2)c1	-3.68	-2.66
Cn1c(=O)cc(SCC(=O)N2CCN(c3ccccc3)CC2)c2ccc(Cl)cc21	-0.94	-1.6
O=C(C1CCN(c2nn3c(=O)c4c(nc3s2)CCCC4)CC1)N1CCN(c2ccccn2)CC1	1.22	·

# Of the compounds above, these have an aryl methoxy group.
mol	HIV TAR-Tat	CDC25B CDK2 inh
COc1ccc(C(O)Cc2nc3ccccc3n2C)cc1OC (stereo not drawn)	-0.31	-0.75
COc1ccc(-c2noc(C3CCCN(S(=O)(=O)c4ccc(Cl)cc4)C3)n2)cc1 (stereo not drawn)	1.99	·
COc1ccc(N2CSC3=C(C#N)C(c4ccccc4)CC(=O)N3C2)c(OC)c1 (stereo not drawn)	-2.01	4.28*
COc1ccc(S(=O)(=O)N2CCCCC2c2cccnc2)cc1 (stereo not drawn)	0.02	-0.91
COc1ccc(-c2noc(CSc3nnc(C)n3-c3ccc(C)cc3)n2)cc1OC	1.26	-2.04
COc1ccc(NC(=O)NC(=O)C(C)c2ccc(CC(C)C)cc2)cc1 (stereo not drawn)	·	-1.45
COc1ccc(-c2cn3cc(-c4ccc(-c5ccccc5)cc4)nc3n2C)cc1	0.08	·
COc1ccc(N2CCN(c3nc4ccccc4c4nc(-c5cccnc5)nn34)CC2)cc1	1.46	-1.57
COc1ccc(O)c(C2=NN3C(C2)c2cc(Br)ccc2OC3c2cccnc2)c1 (stereo not drawn)	-2.03	0.43
COc1cccc(C2CC(=O)N3CN(C)CSC3=C2C#N)c1OC (stereo not drawn)	-0.83	4.32*
COc1ccccc1CCN[C@H]1CS(=O)(=O)C[C@@H]1S(=O)(=O)c1ccc(Cl)cc1	-0.72	-0.63
COc1ccc(N2CC(O)=C(c3nc4ccccc4s3)C2=N)cc1	0.14	0.42
COc1ccc2[nH]c(C(=O)NCCNc3cccc(C(F)(F)F)n3)cc2c1	·	-0.24

# No enrichment for hits, and some 0.97% of all compounds hit somewhere here.
